GLA inh pH 4.5: qHTS Assay for Inhibitors of Human alpha-Galactosidase at pH 4.5; 230,000 tested, under 10 active; purified enzyme, 4-MU-alpha-Gal fluorescence, pH 4.5; activity change, negative = inhibition, % at 105 µM; AID 1467, 2008; Alpha-galactosidase A (Homo sapiens), P06280; inconclusive = small, poorly fitted or top-dose-only inhibition, or a rising curve; inactive = flat fitted curve, though single readings scatter; no compound was filed as active;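 further: 0% = full activity with enzyme and -100% = basal without enzyme; dose as in the result columns while the protocol names 77 µM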
miR-21 reporter: qHTS Assay for Modulators of miRNAs and/orActivators of miR-21; Potency, µM (highest dose often 38.3 µM), without a hit: top-dose reporter change, positive = more light; HeLa miR-21 FLuc reporter, luciferase, 48 h; 340,000 tested, under 10 active; active = well fitted rising curve with a large enough effect; inconclusive = small, poorly fitted or top-dose-only effect; inactive = no such curve, though single readings can be large or run the other way;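 further: % of control where 0% means no effect; miR-21 action dims this reporter so a rising signal means less miR-21 action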
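HeLa cells stably expressing CMV-driven firefly luciferase with a downstream miR-21 binding sequence, endogenously expressing miR-21, were treated with titrations (up to about 40uM final) for 48 hours at 37 degree Celsius. Luciferase luminescence was read after lysis.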
Rango-impB inh: qHTS Assay for Inhibitors of Rango (Ran-regulated importin-beta cargo) - Importin beta complex formation | actives 0.031% (n = 340,000) | Potency, µM (titrated, usually from 92.2 µM), for the others: at the highest dose inhibition of complex formation | Importin subunit beta-1 (Homo sapiens), Q14974 | Rango CFP/YFP FRET sensor + importin beta, 45 min | AID 540263, 2011; active = rising FRET ratio curve, often small or poorly fitted; inconclusive = mostly compound fluorescence or quenching in the first reads; inactive = flat curves in all reads;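 further: potency means the concentration at half of the fitted maximal effect; 0% = DMSO wells and 100% = buffer wells lacking importin beta; nearly all actives have a fitted effect of over 15% in size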
Target sequence (Q14974 whole entry, looked up): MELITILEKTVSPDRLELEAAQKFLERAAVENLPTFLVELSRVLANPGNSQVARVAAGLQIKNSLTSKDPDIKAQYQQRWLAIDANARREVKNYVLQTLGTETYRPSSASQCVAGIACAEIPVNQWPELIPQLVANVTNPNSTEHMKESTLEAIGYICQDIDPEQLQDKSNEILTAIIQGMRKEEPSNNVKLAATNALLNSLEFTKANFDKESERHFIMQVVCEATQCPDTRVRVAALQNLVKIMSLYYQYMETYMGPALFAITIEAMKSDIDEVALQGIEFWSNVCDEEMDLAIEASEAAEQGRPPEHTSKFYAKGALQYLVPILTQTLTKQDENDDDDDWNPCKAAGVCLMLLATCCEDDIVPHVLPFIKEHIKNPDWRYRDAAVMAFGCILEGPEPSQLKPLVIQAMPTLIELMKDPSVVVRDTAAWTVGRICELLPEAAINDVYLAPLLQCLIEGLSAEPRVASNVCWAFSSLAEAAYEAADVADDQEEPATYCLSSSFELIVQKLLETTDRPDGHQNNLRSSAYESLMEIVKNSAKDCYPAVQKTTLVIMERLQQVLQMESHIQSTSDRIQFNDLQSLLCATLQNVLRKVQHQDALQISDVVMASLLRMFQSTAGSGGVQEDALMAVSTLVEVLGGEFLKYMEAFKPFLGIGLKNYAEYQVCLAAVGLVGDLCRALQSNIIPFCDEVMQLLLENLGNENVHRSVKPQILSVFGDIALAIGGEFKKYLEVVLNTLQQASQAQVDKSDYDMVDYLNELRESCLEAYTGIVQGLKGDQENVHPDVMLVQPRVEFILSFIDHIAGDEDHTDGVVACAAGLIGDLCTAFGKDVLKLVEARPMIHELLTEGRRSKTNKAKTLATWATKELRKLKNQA
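Inhibition scored from the CFP 486 nm/YFP 530 nm FRET ratio 45 min after adding 0.125 microM importin beta to 50 nM Rango biosensor preincubated 5 min with compound (room temperature, PBS with DTT, Tween-20, BSA). No-importin wells as positive control.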
Rango dissoc inh: qHTS Assay for Inhibitors of RanGTP induced Rango (Ran-regulated importin-beta cargo) - Importin beta complex dissociation; actives 0.071% (n = 340,000); Snurportin-1 (Homo sapiens) + GTP-binding nuclear protein Ran (Homo sapiens) + Importin …; AID 540253, 2011; Potency, µM (titrated, usually from 46.1 µM), for inactives: at the highest dose activity change, negative = inhibition; Biochemical FRET Rango-importin beta, RanGTP-induced dissociation; active means falling FRET ratio curve, often poorly fitted, with flat reads before Ran was added; inconclusive means other falling curves, or compound fluorescence or quenching; inactive means flat or rising ratio curve;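 further: potency means the concentration at half of the fitted maximal effect; % of control where 0% means no effect; nearly all actives have a fitted effect of over 45% in size; -100% = wells without RanGTP and RCC1; the record marks most hits as doubtful in a second field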
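Compounds preincubate 5 min with complex of recombinant Rango and importin beta in PBS with 1 mM DTT. Ran (0.6 uM) loaded with 2 mM GTP plus 0.2 uM RCC1 starts dissociation; FRET is recorded 45 min later.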
The depositor's hits bear a star; ? = inconclusive; · = not tested or not shown; & = joins results of further samples; [ ] = another dose, or the depositor's remark. An excerpt; count on the stated rates, not on these rows.

SMILES | GLA inh pH 4.5 | miR-21 reporter | Rango-impB inh | Rango dissoc inh
O=C(c1cc([N+](=O)[O-])ccc1Cl)N1CCc2ccccc21 | · | 0% | 3.9% | 33%
CC(=O)Nc1ccc(NC(=O)COc2cccc3c2OC(C)(C)C3)cc1 | 9 | -1% | 0.3% | 6%
N#Cc1sc2nc3c(cc2c1N)CCCC3 | -6 | -37% | 0.2% | 3%
CN1/C(=C\C(=O)C[n+]2ccc(C(=O)c3ccccc3)cc2)C(C)(C)c2ccccc21 | -1 | 18% | 0.5% | -1%
CCC(C)C(=O)Nc1nnc(-c2cccs2)s1 (stereo not given) | -6 | -49% | -0.4% | -8%
COc1ccccc1C(=O)NNC(=O)c1cccc(F)c1 | 5 | -12% | 4.1% | -6%
CCOc1ccc(C(=O)Nc2ccc(NC(=O)c3ccccc3)cc2)cc1Br | · | 2%&-20% | -0.5% | 2%
CCOc1ccc(N(CC(=O)NCCc2ccc(OC)cc2)S(C)(=O)=O)cc1 | -2 | -2% | ? | 20%
CCN(CC)C(=O)CSc1nnc(-c2ccc(O)cc2)n1CC1CCCO1 (stereo not given) | -11 | -4% | 0.7% | -7%
Cc1ccc(S(=O)CCNC(=O)Cc2ccc(Cl)cc2)cc1 (stereo not given) | -1 | -5% | -1.7% | 3%
O=C(CCCc1nc2ccccc2s1)Nc1ccccc1 | 1 | -28% | -0.8% | 0%
CCc1nn2cc(C(=O)c3ccccc3O)cnc2c1-c1ccc(F)cc1 | -9 | -7% | -2.0% | -12%
CC(=O)c1ccc(NC(=O)c2sc3nc(C)c(C)c(C)c3c2N)cc1 | · | -56% | -2.1% | ?
Cc1nc(CNS(=O)(=O)c2ccc(Br)cc2)cs1 | · | 1% | 0.7% | -12%
CN(C)c1ccc(/C=N/NC(=O)c2ccc3c(c2)OCCO3)cc1 | · | -13% | ? | ?
N#CCCn1ccc(NC(=O)c2ccc(Cl)cc2)n1 | 7 | -18% | -0.3% | -7%
Cc1cc(C)n(CC(O)CN(c2ccccc2)S(=O)(=O)c2ccccc2)n1 (stereo not given) | 1 | -1% | 0.0% | -2%
Cc1sc2nc(SCC(=O)N3CCCC3)[nH]c(=O)c2c1C | 20 | -14% | -3.3% | -8%
CCCn1c(NC(=O)c2ccc([N+](=O)[O-])o2)nc2ccccc21 | · | · | ? | ?
O=C(CSc1nnc(-c2ccccc2F)o1)N1CCNC1=O | · | · | -5.1% | -2%

The closing 6 records of the section above come first, to join the parts:
SMILES | GLA inh pH 4.5 | miR-21 reporter | Rango-impB inh | Rango dissoc inh
CN(C)c1ccc(/C=N/NC(=O)c2ccc3c(c2)OCCO3)cc1 | · | -13% | ? | ?
N#CCCn1ccc(NC(=O)c2ccc(Cl)cc2)n1 | 7 | -18% | -0.3% | -7%
Cc1cc(C)n(CC(O)CN(c2ccccc2)S(=O)(=O)c2ccccc2)n1 (stereo not given) | 1 | -1% | 0.0% | -2%
Cc1sc2nc(SCC(=O)N3CCCC3)[nH]c(=O)c2c1C | 20 | -14% | -3.3% | -8%
CCCn1c(NC(=O)c2ccc([N+](=O)[O-])o2)nc2ccccc21 | · | · | ? | ?
O=C(CSc1nnc(-c2ccccc2F)o1)N1CCNC1=O | · | · | -5.1% | -2%
CCC(OC(=O)C1=Cc2ccccc2OC1)C(=O)NCc1ccco1 (stereo not given) | -8 | -2% | 0.1% | -2%
CCCn1c(SCC(=O)NC(C)(C)C)nnc1C(C)C | -5 | -2% | -0.5% | -13%
Cn1c2ccccc2c2c(C(=O)N3CCN(c4ccccn4)CC3)cn(C3CCCC3)c(=O)c21 | -8 | 13% | 0.1% | 3%
Cc1cc([N+](=O)[O-])ccc1NC(=S)NC(=O)C(c1ccccc1)c1ccccc1 | -5 | 3% | -0.8% | 0%
S=C1NNC2(NN1)C1CC3CC(C1)CC2C3 | -2 | -11% | 2.8% | 5%
C/C(=N\O)C(C)(C)Nc1ccc(Cl)cc1 | -11 | 5% | -3.0% | -4%
COc1cc(/C=N/NC(=O)Cc2nnc(N)s2)cc(OC)c1OC | 10 | 8% | -2.7% | 40%
CCOC(=O)c1ccc(NC(=O)C(C)NS(=O)(=O)c2ccc(OC)cc2)cc1 (stereo not given) | -7 | -2% | 1.2% | -2%
CC(=O)NCCOc1cccc2cccnc12 | 5 | -2% | -2.9% | 2%
C/C(=N\Nc1ccc(Cl)c(C(=O)O)c1)c1cccs1 | 0 | -55% | ? | -22%
COc1ccc(OCC(=O)Sc2ccc(C)cc2)cc1 | -5 | 16% | -0.3% | -4%
O=C(CN1C(=O)CCC1=O)Nc1cccc(NC(=O)CN2C(=O)CCC2=O)c1 | 1 | -3% | -0.4% | 15%
S=C(NC1CCCCC1)N(CCc1ccccc1)CCc1ccccc1 | 2 | -10% | 1.7% | -29%
Cc1ccc(S(=O)(=O)N2CCN(C(=O)CSCc3ccc(C(C)C)cc3)CC2)cc1 | · | · | -1.5% | 1%
Clc1ccc(-c2cc(COc3ccccc3)no2)cc1Cl | -1 | -10% | -1.7% | -2%
CCc1ccccc1NC(=O)CN1CCN(CC(=O)Nc2ccc3c(c2)OC2(CCCCC2)O3)CC1 | · | · | -4.3% | 1%
Cc1cccc(OCCCC(=O)NNC(=O)c2ccccn2)c1 | · | · | -0.1% | -6%
C#CCOCCOCCOCCNc1nc(N2CCOCC2)nc(N2CCN(C(=O)CCCCCCCCCCNC(=O)[C@@H](CCSC)n3cc(CCO)nn3)CC2)n1 | · | · | 0.2% | -13%
COc1cccc(-c2nc(CS(=O)(=O)CC(=O)NCc3ccc(Cl)cc3)c(C)o2)c1 | 3 | -1% | -0.2% | 12%
Cc1ccc(C2=NNC(=Nc3ccc(F)cc3)SC2)cc1 | -3 | 22% | 0.0% | -9%
COc1ccc(-c2cc3ccccc3n2CC(O)CN2CCN(CCO)CC2)cc1 (stereo not given) | 2 | -10% | -5.6% | -7%
Cc1cc(=O)c2ccccc2n1CC(=O)NCc1ccccc1 | -15 | 15% | -3.0% | 1%
Cc1ccccc1OCCNc1ccc(C(F)(F)F)cc1[N+](=O)[O-] | 2 | -27% | 0.1% | -3%
COc1cc2c(cc1NC(=O)c1cc(-c3ccccn3)nc3ccccc13)oc1ccccc12 | -3 | 0% | 0.0% | -11%
OCc1cc(-c2ccc(Cl)c(Cl)c2)on1 | 2 | -23% | -0.1% | ?
C[C@H](NC(=O)c1[nH]cnc1C(=O)Nc1ccc(CNC(=O)OC(C)(C)C)cc1)C(=O)OC(C)(C)C | -8 | 26% | 0.2% | 7%
Cc1ccc(S(=O)(=O)N(C)CC(=O)NNC(=O)Cc2cccc(F)c2)cc1 | · | · | 3.6% | -3%
CCc1nnc(NC(=O)CSc2nncc(=O)n2N)s1 | · | -1% | 0.9% | 0%
CC1CCCCN1CCNC(=O)CCc1nnc2n(Cc3ccccc3)c(=O)c3ccccc3n12 (stereo not given) | · | 0% | -2.8% | 28%
Cn1nnnc1SCC(=O)Nc1cc(S(=O)(=O)N2CCCCC2)ccc1Cl | · | · | -3.1% | -16%
COc1ccc(CCNC(=O)CCc2ccc(OC)cc2)cc1 | · | 0% | -0.9% | -3%
O=C(CSc1nnc(Nc2ccccc2F)s1)NC1CC1 | · | · | 2.9% | -15%
CCOC(=O)c1c(NC(=O)OC)sc(C(=O)N(CC)CC)c1C | -3 | -4% | -1.4% | -7%
COc1ccc(C(=O)CSc2n[nH]c(=O)n2Cc2ccco2)cc1 | 6 | -8% | 5.0% | 1%
CC(C)=CCN1CCN(Cc2nc(-c3ccccc3)cs2)CC1CCO (stereo not given) | 3 | 0% | -0.2% | -6%
Cc1cccc(-c2ncc(CN3CCN(CC(C)C)C(CCO)C3)cn2)c1 (stereo not given) | 1 | -12% | -0.1% | 1%
CC(Oc1ccccc1)C(=O)Nc1ccc(S(=O)(=O)NCC2CCCO2)cc1 (stereo not given) | -1 | 12% | 0.3% | -9%
O=C(NCCC1=CCCCC1)C1CCN(S(=O)(=O)c2cccc3cccnc23)CC1 | -11 | -22% | 3.3% | 11%
COc1ccccc1N1C(=O)C(Cl)=C(Nc2ccccc2O)C1=O | -1 | 0% | 3.4% | -10%
COc1cc(S(=O)(=O)N2CCN(C)CC2)ccc1Cl | 5 | -15% | -0.3% | 7%
O=C(NCc1ccccc1)c1cccc(S(=O)(=O)NCc2ccccc2)c1 | 2 | -3% | 0.0% | 1%
CC(CCc1ccccc1)NC(=O)c1ccccc1F (stereo not given) | · | -5% | 6.1% | -8%
Cc1ccc(S(=O)(=O)N2CCOCC2)cc1C(=O)NC1CCCC(C)C1C (stereo not given) | · | · | 2.4% | 12%
O=C(CCN1C(=O)/C(=C/c2ccccc2)SC1=S)NNC(=O)c1cccnc1 | -3 | -6% | 4.3% | -19%
CCCOc1ccc(Oc2cc(C)nc(SC)n2)nn1 | 0 | 2% | -1.4% | -1%
CCSc1nnc(NC(=O)c2ccc3c(c2)OCO3)s1 | -10 | -51% | 1.2% | 0%
CC(=O)N[C@@H](Cc1c[nH]c2ccccc12)C(=O)OCC(=O)NCc1ccc2c(c1)OCO2 | 7 | -2% | 2.5% | 19%
COc1ccc([C@@H]2[C@@H]3C(=O)N(C(C)(C)C)C(=O)[C@@H]3[C@]3(CC(C)C)C(=O)N(c4cccc(Br)c4)C(=O)N23)cc1 | · | -5% | -2.3% | ?
COc1ccc(/C=C/C(=O)N2CCN(C)CC2)cc1S(=O)(=O)N1CCCCC1 | 4 | 3% | 4.6% | -18%
CCC1Nc2ncnc(N3CCN(c4ccccc4)CC3)c2N(Cc2ccc(Br)cc2)C1=O (stereo not given) | · | · | -4.1% | 8%
CCOC(=O)C1=C(C)Nc2[nH]c(=O)[nH]c(=O)c2C1c1cccs1 (stereo not given) | -21 | -1% | -0.1% | -1%
CCCN(CC(=O)Nc1ccccc1OC)C(=O)CCCN1C(=O)c2ccccc2C1=O | · | · | -0.2% | 9%
C=CCn1c(O)c(N=NC(=S)Nc2ccccc2F)c2ccccc21 | 0[21.1 µM] | 25% | -1.1% | 9%
CCN(CC)C(=O)CSc1nc2cc3c(cc2c(=O)n1CCCCCC(=O)NCc1ccc(OC)cc1)OCO3 | -4 | 0%&1% | 1.5% | 1%
O=C(O)c1csc(Br)c1Br | -8 | 3% | -0.2% | -10%
COc1ccccc1NC(=O)c1cc(C)oc1C | 8 | -18% | 6.9% | ?
C/C(=N\NS(=O)(=O)c1ccc(Br)cc1)c1cccs1 | 1 | -24% | -2.7% | 28%
O=C(Nc1cc(C(F)(F)F)ccc1Cl)C(Sc1cccc[n+]1[O-])c1ccccc1 (stereo not given) | 2 | -3% | 13% | -3%
CCOc1ccccc1C=C1SC(=S)NC1=O | · | · | 3.5% | -1%
CN(C)S(=O)(=O)c1ccc(N2CCCC2)c(C(=O)NNC(=O)COc2ccc(Cl)cc2)c1 | · | -1% | -4.1% | -9%
Other structures
SMILES | GLA inh pH 4.5 | miR-21 reporter | Rango-impB inh | Rango dissoc inh
Cc1ccc(NC(=O)COC(=O)Cn2c(C)csc2=O)cc1C | 2 | -2% | 2.5% | -12%
S=C(NCc1ccco1)N1CCOCC1 | 8 | -1% | -2.7% | -3%
COc1cc2[nH]c(C(=O)NN)c(N)c2cc1OC | -6 | -1% | · | ·
O=C(N/C(=C\c1ccc([N+](=O)[O-])cc1)C(=O)N1CCOCC1)c1ccco1 | · | -1% | 1.8% | -1%
O=C(OCCN1C(=O)c2cccc3c(N4CCOCC4)ccc(c23)C1=O)c1ccccc1Cl | -6 | ? | ? | ?
COc1cc(C2C(C#N)=C(N)Oc3c2oc(CO)cc3=O)ccc1OC(C)C (stereo not given) | -2 | -8% | -1.4% | 1%

Assay outcomes from PubChem BioAssay.
